KCNQ2 inh: KCNQ2 potassium channel inhibitors, primary screen, cell-based, CHO-K1, FluxOR thallium flux, B-score (AID 2156); actives 1.1% (n = 310,000); 20 min; stronger effect = lower value; only compounds with negative scores are shown here; some inactives read as strong as hits; Potassium voltage-gated channel subfamily KQT member 2 (Rattus norvegicus), O88943; B-score at 10 µM;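 active = fluorescence ratio B-score at most minus 3 library SDs, with starting brightness B-score within 2 library SDs, cut at about -5.5 in these data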
Target sequence (O88943 whole entry, looked up): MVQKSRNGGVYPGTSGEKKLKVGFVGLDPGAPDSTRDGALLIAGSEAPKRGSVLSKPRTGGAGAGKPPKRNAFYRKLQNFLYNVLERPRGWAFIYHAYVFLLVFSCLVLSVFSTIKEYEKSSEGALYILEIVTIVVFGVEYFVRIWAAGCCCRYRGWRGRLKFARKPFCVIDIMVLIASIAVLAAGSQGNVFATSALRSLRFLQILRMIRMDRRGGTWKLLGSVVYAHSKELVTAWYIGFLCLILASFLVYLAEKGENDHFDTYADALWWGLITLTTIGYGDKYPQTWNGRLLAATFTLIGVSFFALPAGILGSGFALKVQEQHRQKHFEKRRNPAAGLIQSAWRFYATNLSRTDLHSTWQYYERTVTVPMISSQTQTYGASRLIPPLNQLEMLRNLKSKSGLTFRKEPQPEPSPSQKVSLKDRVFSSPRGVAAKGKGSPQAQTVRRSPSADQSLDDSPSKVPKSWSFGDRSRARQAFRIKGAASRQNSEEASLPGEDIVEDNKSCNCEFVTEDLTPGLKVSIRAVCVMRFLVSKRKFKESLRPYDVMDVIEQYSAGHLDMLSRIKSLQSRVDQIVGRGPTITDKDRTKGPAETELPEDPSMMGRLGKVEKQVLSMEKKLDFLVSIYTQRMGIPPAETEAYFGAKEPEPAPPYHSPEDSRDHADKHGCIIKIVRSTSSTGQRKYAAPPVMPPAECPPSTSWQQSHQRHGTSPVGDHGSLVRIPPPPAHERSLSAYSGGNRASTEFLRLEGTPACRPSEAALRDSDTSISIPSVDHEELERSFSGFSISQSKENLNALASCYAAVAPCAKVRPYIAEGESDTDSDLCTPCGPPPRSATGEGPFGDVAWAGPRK
KCNQ2 inh baseline: recorded beside KCNQ2 inh, whose call it bears; B-score; measured here: initial fluorescence intensity artifact check;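 brightness before thallium and not channel activity; 0 = typical well and far values either way flag optical interference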
The depositor's hits bear a star; i = inactive.

SMILES	KCNQ2 inh	KCNQ2 inh baseline
Cc1ccc(C2=NOC(C)(c3nnc(-c4cccc(Cl)c4)o3)C2)cc1 (configuration not stated)	i	-0.05
CCOc1ccc(S(=O)(=O)Nc2cccc(C(=O)NCC3(N4CCCCC4)CCCCC3)c2)cc1	i	1
COCCCNC(=O)c1ccc(CS(=O)(=O)c2ccc(OC)cc2)o1	i	-1.2
CC1CN(c2ccc([N+](=O)[O-])c(NCCOc3ccc(Cl)cc3)c2)CC(C)N1 (configuration not stated)	-7*	-0.41*
Cc1cc(C)cc(OCc2ccc(C(=O)NN)o2)c1	i	0.09
CC(Cc1cccs1)NC(=S)Nc1ccc(F)cc1 (configuration not stated)	i	-0.02
CCCCn1c(=O)c(C(=O)N/N=C/c2ccc(F)cc2)c(O)c2ccccc21	i	0.03
O=C(CNc1ccc2ccccc2c1)NNC1=NCCC1	i	0.62
O=[N+]([O-])c1cccc(-c2cn(-c3ccccc3)c(=S)[nH]2)c1	i	0.56
O=C(Nc1ccc2c(c1)OCO2)c1cc2ncc(Br)cn2n1	i	0.45
Cc1c(C(=O)NCCSCc2ccc(F)cc2)cnn1-c1ccc(Cl)cc1	i	-0.01
CC(=O)c1ccc(NC(=O)CCc2nnc3ccc(NCc4ccco4)nn23)cc1	i	1.4
O=C(NCc1ccco1)C(NS(=O)(=O)c1cccc2nsnc12)c1ccccc1 (configuration not stated)	i	1.5
CCOC(=O)/C(C#N)=C/c1ccc(N2CCN(Cc3ccccc3)CC2)cc1	i	0.82
Cc1nn(-c2ncc(C(F)(F)F)cc2Cl)c(=O)n1-c1ccc(F)cc1	i	1.5
CC1SC(C)C(=O)N(CC(=O)Nc2ccc3c(c2)OCO3)C1=O (configuration not stated)	i	-1.1
COc1ccc(CC(NC(C)=O)C(=O)NC2CCN(c3ncccc3[N+](=O)[O-])CC2)cc1 (configuration not stated)	i	0.25
Cc1cc(NNC(=O)c2ccccc2)nc(NNC(=O)c2ccccc2)n1	i	-0.92
CCOc1cc(C(N)=O)cc(Br)c1OC	i	0.11
FC(F)(F)c1cccc(NC(=S)NNC(=S)Nc2ccc(Cl)cc2)c1	i	2.1
O=C(CSc1nnnn1C1CCCC1)N1CCCc2ccccc21	i	0.02
CSCC[C@H](NC(=O)OC(C)(C)C)c1nnc(SCC(N)=O)o1	i	1
Cc1csc(=O)n1CC(=O)OC(C)C(=O)Nc1cccc(Cl)c1 (configuration not stated)	i	0.44
Cc1cc2oc(=O)cc(CN3CCOCC3)c2cc1O	i	0.25
CCCCSCCCNC(=O)c1ccc(CS(=O)(=O)c2ccc(OC)cc2)o1	i	0.31
C/C(=N\NC(=O)c1nnn(-c2nonc2N)c1CN(C)c1ccccc1)c1cccs1	i	-0.32
Cc1nc(N2CCN(c3ccccn3)CC2)c2c(C)c(C(=O)Nc3ccc(Cl)cc3)sc2n1	i	2.3
CCOC(=O)C1(Cc2ccc(OC)cc2)CCN(C(=O)CC2CCC(=O)N2)CC1 (configuration not stated)	i	-1.1
CC(C)(C)NC(=O)c1ccc(C(=O)NC(C)(C)C)cc1	i	-0.04
CCOc1ccc(/C=C2\CCC(C3CCCC3)C2=O)cc1 (configuration not stated)	i	0.08
CCOC(=O)N1CCN(c2nc(-c3cccs3)cc(C(F)(F)F)n2)CC1	i	0.02
CC1(C(=O)Nc2nccs2)Cc2ccccc2C(=O)O1 (configuration not stated)	i	-0.49
CN(C)c1ccc(NC(=O)COC(=O)Cn2nnc3ccccc32)cc1	i	0.09
CCOC(=O)C1=C(C)OC(N)=C(C#N)C1c1c(C)nn(-c2ccc(C)cc2)c1Cl (configuration not stated)	i	-1.2
CCO[C@@H]1OC(C(=O)N2CCN(Cc3ccc4c(c3)OCO4)CC2)=C[C@H](c2csc3ccccc23)[C@H]1CCCO	i	1.9
Cc1cccc(-c2cc(C(=O)Nc3c(C)n(C)n(-c4ccccc4)c3=O)c3ccccc3n2)c1	-5.9*	0.67*
O=C(CSc1n[nH]c(-c2ccccc2Cl)n1)NCc1cccc(C(=O)O)c1	i	-0.32
CCC(=O)NNC(=O)CCC(=O)Nc1cccc(Cl)c1C	i	-0.74
CCOc1cc(/C=N\NC(=O)c2ccc(C)nc2)ccc1OC(=O)c1ccc(F)cc1	i	-0.75
CCc1ccccc1N1C(=O)CC(Sc2nccc(C)n2)C1=O (configuration not stated)	i	0.26
Cn1cc(C(=O)NC2CCCCCCC2)c(=O)c2cc(S(=O)(=O)N3CCCC3)ccc21	i	-0.06
CCCNC(=O)c1ccc(-c2nn(C)c(=O)c3ccccc23)cc1	i	1.4
CCOC(=O)/C=C1\SCC(=O)N1CCOc1cccc(Br)c1	i	-0.66
CCOC(=O)c1ccc(N=Nc2c(C)[nH]n(-c3ccccc3)c2=O)cc1	i	-1.1
O=C(Nc1cccc(C(=O)N2CCOCC2)c1)c1ccccc1Br	i	-1.6

Looked up by compound from the list above (three):
SMILES	KCNQ2 inh	KCNQ2 inh baseline
Cc1cccc(-c2cc(C(=O)Nc3c(C)n(C)n(-c4ccccc4)c3=O)c3ccccc3n2)c1	-5.9*	0.67*
CCOC(=O)c1ccc(N=Nc2c(C)[nH]n(-c3ccccc3)c2=O)cc1	i	-1.1
Cn1cc(C(=O)NC2CCCCCCC2)c(=O)c2cc(S(=O)(=O)N3CCCC3)ccc21	i	-0.06

Later entries.
SMILES	KCNQ2 inh	KCNQ2 inh baseline
O=C(NC(=O)c1ccncc1)NC(c1ccccc1)c1ccccc1	i	0.39
CC(=O)c1ccc(NC(=O)CSc2nc(C)cc(C)c2C(N)=O)cc1	i	-0.22
C[C@H](NC(=O)C1(c2ccccc2)CCN(C(=O)[C@H]2CSCN2C(=O)OC(C)(C)C)CC1)C(=O)O	i	1.7
COc1ccc(-c2cc(C(=O)Nc3ccc(Br)cc3)no2)cc1	i	0.47
O=C(CCc1ccccc1)Nc1ccc(S(=O)(=O)N2CCCC2)cc1	i	0.24
O=S(=O)(CC(CN1CCCC1)N1CCCC1)c1ccc2ccccc2c1 (configuration not stated)	i	1.6
O=C(NCC1CC1)c1onc(CSc2ccc(F)cc2)c1C(=O)NCC1CC1	i	-1
COc1ccc(-c2ccccc2NC(=O)C2CCCN(Cc3ccc(C)o3)C2)cc1 (configuration not stated)	i	-2.4
COCC1COS(=O)(=O)NC1(C)C (configuration not stated)	i	-0.06
CCNC(=O)CC1C(=O)N(c2ccc(C)cc2)C(=O)N1CCc1sccc1C (configuration not stated)	i	-0.29
CCOC(CCNC(=O)c1cn(CC(C)C)c(=O)c2c1c1ccccc1n2C)OCC	i	2.1
O=[N+]([O-])c1cccc2c3c([nH]c12)CCCC3	i	1.4
COC(=O)CSc1nc2ccccc2n1CC(=O)N(C(C)C)C(C)C	i	1.4
CCCCOc1ccc(C(=O)Nc2ccc(C)cc2[N+](=O)[O-])cc1	i	-1.1
Cc1nc(NC(=O)CCc2ccccc2)sc1C	i	0.28
CC(C)c1nc2cc3ccccc3cc2[nH]1	i	-1.5
COc1ccc(C(=O)N2CCn3c2nc2ccccc23)cc1	i	-0.62
CCOc1ccc(C2c3cc(OC)c(OC)cc3CC(=O)N2c2ccc(OC)cc2)cc1 (configuration not stated)	i	0.36
O=C(Nc1c2c(nn1-c1ccccc1)CS(=O)C2)c1ccc(Br)o1 (configuration not stated)	i	-0.35
CCCCn1c(N)c(N(CCOC)C(=O)c2ccc(S(=O)(=O)N3CCCCC3)cc2)c(=O)[nH]c1=O	i	0.53
Cc1ccc(NC(=S)Nc2ccc3cn[nH]c3c2)cc1C	i	0.84
O=C(CN(CCc1ccccc1)S(=O)(=O)c1ccc(Br)cc1)N/N=C/c1ccc2c(c1)OCO2	i	-0.84
CC(=O)Nc1ccc(C(=O)N/N=C/c2cc(Br)cc(Br)c2O)cc1	i	1.4
N#CCCN(C1CCCCC1)S(=O)(=O)CCOc1ccccc1	i	-1
CCOCCCNC(=O)CCCC1=NS(=O)(=O)c2ccccc2N1	i	1.9
CCCOc1ccc(/C=C2/C(=O)ON=C2C)cc1Cl	i	0.3
O=C(O)[C@H]1CCCC[C@H]1C(=O)NCCc1ccccc1	i	-1.4
O=C1CN(S(=O)(=O)c2ccc(Cl)cc2)CC(=O)N1CCc1ccccc1	i	-2.7
CCOc1cc(CNCCc2ccc(S(N)(=O)=O)cc2)ccc1OCc1ccc(Cl)cc1	i	0.21
C=CCSC1=N/C(=C/c2ccsc2)C(=O)N1c1ccccc1	i	0.61
CC12CCC(C(=O)N3CCN(c4ncccn4)CC3)(c3nc4ccccc4nc31)C2(C)C (configuration not stated)	-6.6*	-1.2*
CC(=O)c1ccc(N2Cc3ccccc3C2)cc1	i	0.38
COc1ccc(NC(=O)CO/N=C2\CCCc3nonc32)cc1	i	-0.32
COc1cc2c(cc1OC)CN(Cc1ccc(C)cc1)CC2	i	-0.07
c1ccc(CNc2ncnc3scc(-c4cccs4)c23)nc1	i	1.3
O=C(COc1ccc(S(=O)(=O)N2CCOCC2)cc1Cl)N1CCOCC1	i	0.73
Cc1cc(OCC(=O)N(C(C)C)C(C)C)cc(C)c1Br	i	0.95
CCC12C(=O)C(CC)(C(c3ccccc3)=C1c1ccccc1)[C@@H]1C(=O)N(c3ccccc3)C(=O)C12 (some centres not stated)	i	1.1
COc1ccc(C(=O)N2CCc3cc(OC)c(OC)cc3C2c2cccc([N+](=O)[O-])c2)cc1 (configuration not stated)	i	0.01
COc1ccccc1/C=C/C=C1\Oc2c(ccc(O)c2CN2CCN(CCO)CC2)C1=O	i	15
Nc1c(C(=O)Nc2ccc3c(c2)OCCO3)nnn1Cc1ccccc1Cl	i	-0.34
O=C(C[n+]1ccccc1)Nc1ccccc1C(=O)O	i	-0.02
CC(CC(=O)N1CCN(c2ccccc2F)CC1)c1ccccc1 (configuration not stated)	i	-1.8
CC1=C2C3OC(=O)C(C)[C@@H]3CC[C@](C)(O)C2C2C3C4C5(C12)[C@H]1OC(=O)[C@@H](C)C1CC[C@]4(C)O[C@]5(C)[C@@H]3O (some centres not stated)	i	2.4
Cc1ccc(C2SCC(=O)N2c2ccccc2)cc1 (configuration not stated)	i	1.4

Full records as entered above:
Entry for COc1ccc(C(=O)N2CCc3cc(OC)c(OC)cc3C2c2cccc([N+](=O)[O-])c2)cc1 (configuration not stated) = KCNQ2 inh: i; KCNQ2 inh baseline: 0.01
Entry for CCC12C(=O)C(CC)(C(c3ccccc3)=C1c1ccccc1)[C@@H]1C(=O)N(c3ccccc3)C(=O)C12 (some centres not stated) = KCNQ2 inh: i; KCNQ2 inh baseline: 1.1

Going on with the list:
SMILES	KCNQ2 inh	KCNQ2 inh baseline
NC(=O)CSc1nnc(-c2ccccc2F)n1C1CC1	i	-1
O=C(CSCc1ccccc1)Nc1ccc(Cl)cn1	i	1.5
COc1cc(C)c(Cl)cc1S(=O)(=O)NCc1ccccn1	i	1.5
COc1ccc(NC(=O)C2CCN(C(=O)[C@@H]3Cc4ccccc4CN3)CC2)cc1	i	-0.19
O=C(c1ccc2c(=O)n(CCc3ccccc3)c(=O)[nH]c2c1)N1CCN(c2ccc(F)cc2)CC1	i	-0.38
Brc1ccccc1OCCCn1cnc2ccccc21	i	1.6
O=C1NCCNC(=O)c2ccccc2OCCOc2ccccc21	i	0.01
Fc1ccccc1C1CC(c2ccco2)=Nc2ccccc2S1 (configuration not stated)	-7.3*	0.08*
CCc1cccc(NC(=O)COC(=O)c2cc([N+](=O)[O-])ccc2N2CCOCC2)c1	i	1.2
Nc1nc(Sc2ccc([N+](=O)[O-])cc2[N+](=O)[O-])n[nH]1	i	-0.01
CCOC(=O)c1ccccc1NC1c2ccccc2C(=O)N1C1CCN(C(=O)OCC)CC1 (configuration not stated)	i	-0.23
COC(=O)c1c(C#N)c(N)nc2c1CCC2	i	-0.09
COc1cc(OC)cc(C(=O)N[C@@H](CCSC)c2nc3ccccc3[nH]2)c1	i	1.5
Cc1cccc(C)c1NC(=O)CN(C)C(=O)c1cc(S(=O)(=O)N(C)C)ccc1N1CCCC1	i	0.68
O=C(CN1C(=O)NC2(CCc3ccccc32)C1=O)NCC(F)(F)F (configuration not stated)	i	-0.92

Laid out differently: entries from further up.
KCNQ2 inh,KCNQ2 inh baseline,Molecule
i,-0.19,COc1ccc(NC(=O)C2CCN(C(=O)[C@@H]3Cc4ccccc4CN3)CC2)cc1
i,-0.38,O=C(c1ccc2c(=O)n(CCc3ccccc3)c(=O)[nH]c2c1)N1CCN(c2ccc(F)cc2)CC1
i,1.6,Brc1ccccc1OCCCn1cnc2ccccc21
i,0.01,O=C1NCCNC(=O)c2ccccc2OCCOc2ccccc21
-7.3*,0.08*,Fc1ccccc1C1CC(c2ccco2)=Nc2ccccc2S1 (configuration not stated)
i,1.2,CCc1cccc(NC(=O)COC(=O)c2cc([N+](=O)[O-])ccc2N2CCOCC2)c1

(cont.)
SMILES	KCNQ2 inh	KCNQ2 inh baseline
COc1cc(NC(=O)c2ccccc2OCc2ccccc2)cc(OC)c1OC	i	0.51
O=C(O)CCc1ccc(-c2cccs2)n1NC(=O)c1ccco1	i	0.95
CN1CCN(CCCNC(=O)c2ccc3c(=O)n(CCc4ccccc4)c(=O)[nH]c3c2)CC1	i	0.96
CC1(C)CC(=O)C(C=NCC2CCN(C(=S)Nc3ccccc3)CC2)=C(O)C1	i	-0.78
NNC(=O)c1cc2sccc2s1	i	2.2
CCOc1ccc(S(=O)(=O)N(C(=O)c2ccco2)c2cc3sc(=O)oc3c3ccccc23)cc1	i	-0.15
O=C(c1ccc(C(F)(F)F)cc1)C1CCCN(C(=O)c2cnccn2)C1 (configuration not stated)	i	-1.4
CC(C)NC(=O)NC(=O)CSc1nnc(-c2c[nH]c3ccccc23)o1	i	-0.89
CC(C)N1CCNCC1	i	1.3
COc1ccc2c(-c3cc4ccc(OCc5ccc(F)cc5)cc4oc3=O)cc(=O)oc2c1	i	0.01
N#Cc1ccc(C(=O)NC23CC4CC(CC(C4)C2)C3)cc1	i	2.5
COCCNC(=S)Nc1cc(OC)c(NC(=O)c2ccco2)cc1OC	i	1.5
Cc1ccc(-n2cc(-c3ccccc3)c3c(=O)[nH]cnc32)cc1	i	0.32
Oc1c(C=Nc2ccccc2)sc(=S)n1Cc1ccccc1	i	0.1
CN(Cc1ccccc1)S(=O)(=O)c1ccc(NC(=S)NC(=O)C(C)(C)C)cc1	i	0.06

Source: PubChem (Johns Hopkins Ion Channel Center)

A portion of the library; count on the stated rates, not on these rows.
